# CBX7 inh: CBX7 chromodomain binding inhibitors, primary screen, biochemical, AlphaScreen; Chromobox protein homolog 7 (Homo sapiens), O95931; AlphaScreen His6-CBX7 / biotin-H3K27me3 peptide binding; active compounds read low; normalised signal (fraction of DMSO) (no concentration beside the values); actives 1.1% (n = 66,000); AID 1224903, 2016; in the data active means normalised signal below about 0.5;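 further: 100 nL library stock added to about 20 µL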
# Target sequence (O95931 whole entry, looked up): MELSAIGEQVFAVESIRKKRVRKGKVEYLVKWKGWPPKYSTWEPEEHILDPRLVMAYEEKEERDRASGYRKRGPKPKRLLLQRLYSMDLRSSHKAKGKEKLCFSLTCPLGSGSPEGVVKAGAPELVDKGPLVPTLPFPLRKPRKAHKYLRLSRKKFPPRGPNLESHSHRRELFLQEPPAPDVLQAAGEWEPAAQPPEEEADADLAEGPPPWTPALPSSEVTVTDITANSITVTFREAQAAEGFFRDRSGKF
# CBX7 inh z-score: second read-out of CBX7 inh, no call of its own (marks repeat the call); z-score; measured here: z-score of CBX7 signal; some inactives read as strong as hits; reference of the scale not given here;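 same signal on another scale; lower means less binding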
# * marks the source's active call; other numbers are inactive results. This is a subset. The share of hits here may be higher or lower than overall.
Molecule	CBX7 inh	CBX7 inh z-score
O=C(Nc1nc(-c2ccccn2)cs1)c1ccc(S(=O)(=O)N2CCCCC2)cc1	0*	-18*
O=C(NCCN1CCOCC1)c1csc2c1CCCCC2	1	0.6
CCOc1ccc(C(=O)Nc2ccc3oc(-c4cccnc4)nc3c2)cc1Cl	1	0.02
CC(=O)OC1CCC2(C)C3CCC4(C)C(CC5OC6(CCC(C)CO6)C(C)C54)C3CC(=O)C2(O)C1 (stereo not given)	1	0.019
Cc1ccc(N2C(=O)CSC2c2cccnc2)cc1F (stereo not given)	1	0.22
O=C(COc1cccc2cccnc12)N1c2ccccc2CCc2ccccc21	0.68	-0.32
CCCCN(Cc1ccccc1)S(=O)(=O)c1ccc2c(c1)CCN2C(=O)CC	1.3	2.8
CCCCN(C)Cc1c(C)[nH]c2c(Cl)cccc2c1=O	1.1	2.7
O=C(Nc1nc(-c2ccc(S(=O)(=O)N3CCOCC3)cc2)cs1)c1ccccc1	0.94	-1.6
N#Cc1nc(COc2ccccc2)oc1NCc1ccc(F)cc1	0.88	-5.4

Molecule	CBX7 inh	CBX7 inh z-score
O=C(NCc1ccccc1Cl)c1ccc2c(c1)N(Cc1ccc(Cl)cc1)C(=O)CS2	1	1.9
CC(=O)NC(C)c1nc2ccccc2n1Cc1cc(C)ccc1C (stereo not given)	0.98	-0.75
O=C(Nc1ccc2oc(-c3ccncc3)nc2c1)c1ccc(-c2cccc(Cl)c2)o1	0.99	-0.59
Cc1cccc(C)c1NC1c2ccccc2C(=O)N1Cc1ccccc1Cl (stereo not given)	0.97	-0.32
CCCCCCCC(O)(CCN1CCCCC1)c1ccc(OC)cc1 (stereo not given)	1.1	2.6
CCc1ccccc1NC(=O)CN(C)S(=O)(=O)c1cccc2cccnc12	1.2	1.9
O=C(NC1CCCc2ccccc21)C1CCN(c2nnc(-n3cccc3)s2)CC1 (stereo not given)	0.98	-0.23
CCOCCCNC(=O)C(C)N1C(=O)CC(C)(C)Sc2ccccc21 (stereo not given)	1	1.3
COc1cccc(CNC(=O)c2cccc(NC3=NC4CS(=O)(=O)CC4S3)c2)c1 (stereo not given)	0.87	-1.5
CCN(CC)CCN1C(=O)Cn2c(C)c(C)c3cccc1c32	1.2	1.6

Molecule	CBX7 inh	CBX7 inh z-score
COc1cc(-c2nnc(SCC(=O)c3ccc(-c4ccccc4)cc3)o2)cc(OC)c1OC	1.1	1.3
Cc1c(C(=O)NC2CCCC(C)C2C)oc2ccc(S(=O)(=O)N3CCCCC3)cc12 (stereo not given)	0.86	-3.3
Cc1ccc(Nc2c(-c3ccc(N4CCOCC4)cc3)nc3cccc(C)n23)cc1	0.84	-2.7
CN1CCN(C(=O)C2CCN(C(=O)c3cc4sccc4n3Cc3ccc(Cl)cc3)CC2)CC1	0.99	-0.44
FC(F)(F)c1c2c(nc3cc(-c4ccc(Cl)cc4)nn13)CCC2	0.98	-0.25
OC(COCc1ccc(Cl)cc1)CN1CCN(c2ccccn2)CC1 (stereo not given)	1	0.64
O=C(NC1CCCC1)c1c[nH]c2ccc(S(=O)(=O)Nc3cccc(C(F)(F)F)c3)cc2c1=O	1.1	1.6
O=C(Nc1cccnc1)c1cc(-c2ccco2)on1	0.94	-1.6
COc1ccc(-c2cc3nc(C)c(CCC(=O)NCCc4ccccc4)c(C)n3n2)c(OC)c1	1.1	0.97
CC1(C)CC(=O)c2cc(C(=O)NCc3ccccc3)c(=O)n(-c3ccccc3)c2C1	0.98	-0.53

Molecule	CBX7 inh	CBX7 inh z-score
Cc1oc(-c2ccc(Cl)cc2)nc1CN1CCC(C(=O)NCc2ccccc2Cl)CC1	1	0.4
Cc1ccc(-c2nnc(NC3CCCCC3)c3ccccc23)cc1S(=O)(=O)N1CCN(C)CC1	0.95	-0.058
COc1cc2c(C(=O)Nc3ccccc3F)cn(C)c(=O)c2cc1OC	1.2	2.9
CCn1c(/C=C/c2ccc(Cl)cc2)nc2ccccc2c1=O	0.97	-0.81
O=C(Nc1cccnc1)c1cc(-c2ccc(Br)cc2)nc2ccccc12	0.91	-2
O=C(Nc1nc2ccccc2n1Cc1ccccc1Cl)c1ccccc1	0.84	-1.8
Cc1ccc(S(=O)(=O)c2nc(CC(C)C)oc2N2CCCCC2)cc1	0.88	-0.27
CCN(CC)C(=O)CCn1nc(-c2ccc(C)cc2)c2ccccc2c1=O	0.99	-0.37
Cc1ccc(C)c(N(C)S(=O)(=O)c2cccc3cccnc23)c1	0.96	-0.98
CN1C(=O)CC(NCc2ccc(S(N)(=O)=O)cc2)C1=O (stereo not given)	1.1	1.9

# A section from further up, for reference:
Molecule	CBX7 inh	CBX7 inh z-score
O=C(Nc1nc(-c2ccccn2)cs1)c1ccc(S(=O)(=O)N2CCCCC2)cc1	0*	-18*
O=C(NCCN1CCOCC1)c1csc2c1CCCCC2	1	0.6
CCOc1ccc(C(=O)Nc2ccc3oc(-c4cccnc4)nc3c2)cc1Cl	1	0.02
CC(=O)OC1CCC2(C)C3CCC4(C)C(CC5OC6(CCC(C)CO6)C(C)C54)C3CC(=O)C2(O)C1 (stereo not given)	1	0.019

# Later entries.
Molecule	CBX7 inh	CBX7 inh z-score
CCn1c(C(=O)N2CCC(C(=O)NCCN3CCCCCC3)CC2)cc2sccc21	1.1	0.65
O=C(Cn1nc(Cc2ccncc2)c2ccccc2c1=O)NC1CCCCC1	0.96	-1.2
COc1cc(C(O)c2nccn2C)cc(OC)c1OC (stereo not given)	0.99	-0.35
CC(CC(=O)NC1CCCCCC1)CC1=NS(=O)(=O)c2ccccc2N1 (stereo not given)	1.1	1.2
Cc1csc2ncc(C(=O)Nc3cc(C(F)(F)F)ccc3Cl)c(=O)n12	1	1.2
CC(=O)Nc1ccc(-n2c(/C=C\c3cccc(C(F)(F)F)c3)nc3ccccc3c2=O)cc1	1.1	0.6
CCC(=O)NCc1cc(-c2nn(C)c(=O)c3ccccc23)ccc1OC	1	0.033
CC1CCN(c2c(NCc3ccc(C(=O)NCc4ccc(F)cc4)cc3)c(=O)c2=O)CC1	1	1.6
CC(C)CCNC(=O)Cn1nc(Cc2ccncc2)c2ccccc2c1=O	1.1	1.3
COc1cc2c(cc1OC)C(C(=O)NCC1CCCO1)C1c3ccccc3CCN1C2=O (stereo not given)	1	0.092

Molecule	CBX7 inh	CBX7 inh z-score
CCNC(=O)CC1Sc2ccccc2NC1=O (stereo not given)	0.91	-2.6
O=C(NC1CCCCCC1)C1CCCN(S(=O)(=O)c2cccc3cccnc23)C1 (stereo not given)	0.95	-0.57
CN(C(=O)c1ccc2c(=O)n3c(nc2c1)CCCCC3)c1ccc(Br)cc1	0.92	-1.3
Cc1ccc(Cl)cc1NC(=O)CC1Oc2ccccc2NC1=O (stereo not given)	0.94	-1.2
O=C1CC(c2ccsc2)c2cc3c(cc2N1)OCCO3 (stereo not given)	1.1	0.16
CC(C)(C)c1nnc(Nc2ccc(Br)cc2)[nH]c1=O	1	0.22
COCCCNC(=O)C1CCN(C(=O)c2cc3sccc3n2C)CC1	1	0.13
Cc1oc(-c2ccccc2Cl)nc1Cn1c(SCc2ccc(F)cc2)nc2ccncc21	0.91	-2.3
Cc1ccc(C)c(NC(=O)Cn2cc(S(=O)(=O)c3ccccc3)c(=O)c3cc(F)ccc32)c1	0.82	-3
O=C(CSc1n[nH]c(-c2ccncc2)n1)c1c[nH]c2ccccc12	1.2	0.82

# Compound profiles, as listed above.
# FC(F)(F)c1c2c(nc3cc(-c4ccc(Cl)cc4)nn13)CCC2 is entered as CBX7 inh: 0.98; CBX7 inh z-score: -0.25
# COc1cc(-c2nnc(SCC(=O)c3ccc(-c4ccccc4)cc3)o2)cc(OC)c1OC is entered as CBX7 inh: 1.1; CBX7 inh z-score: 1.3

# Other results:
Molecule	CBX7 inh	CBX7 inh z-score
CCC(C)NC(=O)C1(C)CCC(=O)N1Cc1ccc(F)cc1Cl (stereo not given)	0.91	-1.5
COc1cc2c(cc1OC)C(C(=O)NCc1ccc(F)cc1)C(c1ccccc1F)N(C)C2=O (stereo not given)	0.96	-0.39
Cc1cc(NC(=O)CSc2n[nH]c(CC(C)C)n2)no1	0.89	-1.3
Cc1ccccc1NC(=O)Cn1ncc2c1-c1ccccc1OC2	0.94	-1.7
O=C(NCCc1ccccc1)C1CCN(c2nc3ccccc3n2Cc2ccc(F)cc2)CC1	1.1	1.1
COc1ccc(-c2nc(S(=O)(=O)c3ccccc3)c(NCc3ccccc3)o2)cc1	0.91	-0.97
COc1ccccc1OCCSc1nc2ccccc2n1CC(=O)O	1	0.82
CCOC(=O)c1cnc2c(C)cc(C)cc2c1NCCN(C)C	1	0.48
COc1ccc(-c2nc3ccccc3o2)cc1NC(=O)COc1cc(C)cc(C)c1	0.99	-0.41
CNC(=O)c1c[nH]c2ccc(S(=O)(=O)Nc3cccc(SC)c3)cc2c1=O	0.91	-1.7

Molecule	CBX7 inh	CBX7 inh z-score
Cc1nn2c3ccccc3n(CC(=O)c3ccccc3)c2nc1=O	0.98	-0.39
CCOc1ccc(C(=O)Nc2cccc(-c3nc4ccc(C)cc4o3)c2)cc1Br	1.2	1.9
NC(=O)c1ccc(Cl)c(S(=O)(=O)N2CCCCC2)c1	1	1.3
O=C(NC1CCCCCCC1)c1ccc2c(c1)N(Cc1c(F)cccc1Cl)C(=O)CS2	1	0.033
CCC(=O)N1c2ccc(S(=O)(=O)NCc3ccc(C)cc3)cc2CC1C (stereo not given)	1.1	0.51
Cc1ccccc1-c1nc(CN2CCC(C(=O)NC3CCCC(C)C3C)CC2)c(C)o1 (stereo not given)	1	0.28
O=C(c1cc2nc3c(c(C(F)(F)F)n2n1)CCc1ccccc1-3)N1CCCCC1	0.96	-0.42
Cc1nc2sccn2c1-c1csc(Nc2ccccc2)n1	0.74	-5.1
Cc1ccc(-n2cc(-c3ccc(Cl)cc3)[nH]c2=O)cc1	0.97	-0.79
CCOc1cc(OCC)cc(C(=O)Nc2ccc3oc(-c4cccnc4)nc3c2)c1	1.1	1.5

Molecule	CBX7 inh	CBX7 inh z-score
CCc1ccc(CNC(=O)CCc2nc(-c3ccc(C)cc3)no2)cc1	1.1	2.2
Cc1ccc(CNC(=O)c2sc(-n3cccc3)nc2C)cc1	0.72	-1.1
CCOCCn1c(-c2ccc(OC)cc2)nc2ccccc21	1	0.41
CCCN1Cc2cccc(C(=O)NCc3cccc(Cl)c3)c2C1=O	1	0.37
CCCCN(CCCC)S(=O)(=O)c1ccc2[nH]c(=O)cc(C(=O)NC(C)CC)c2c1 (stereo not given)	1	0.43
CC(C)c1ccc(NS(=O)(=O)c2ccc3[nH]cc(C(=O)N(C)CCC#N)c(=O)c3c2)cc1	0.89	-2.1
COc1ccc(CNC(=O)c2ccc3c(c2)N(Cc2cccc(F)c2)C(=O)c2ccccc2S3)cc1	0.96	-0.99
Cc1ccc(C)c(NC(=O)C(Cc2ccccc2)NS(=O)(=O)c2ccc3c(c2)CCC(=O)N3)c1 (stereo not given)	1.1	0.96
O=C(Nc1cccc(-c2nc3ccccc3o2)c1)c1cccc(Oc2ccccc2)c1	1.1	0.99
COc1ccc(OC)c(CCNC(=O)C2CCN(c3nnc(-n4cccc4)s3)CC2)c1	1.1	1.1

Molecule	CBX7 inh	CBX7 inh z-score
CN1CCN(CCCSc2nnc3c(n2)[nH]c2ccccc23)CC1	1.1	0.88
COc1ccc(-c2cn(-c3ccc(F)cc3)c(S(=O)(=O)CC(=O)Nc3ccccc3)n2)cc1	1	0.36
CCOC(=O)c1c(NC(=O)COc2ccc(Br)cc2)sc(C)c1C	1	0.066
Cc1nc2c(C(=O)NCc3ccc4c(c3)OCO4)cnn2c(C)c1Cc1ccc(F)cc1	0.96	-1.1
O=C(NCCCN1CCN(Cc2ccccc2)CC1)c1cc2ccccn2n1	1	0.1
COc1ccc(NC(=O)C2CCCN(S(=O)(=O)c3cccnc3)C2)c(OC)c1 (stereo not given)	0.97	-0.87
COc1ccc(OC)c(NC(=O)c2c(NCc3sccc3C)sc3c2CCC3)c1	0.97	-0.35
CC(C)NC(=O)COc1ccc2c(c1)C(=O)CC(C)(C)O2	0.91	-1
CCc1ccc(N2CC(c3nc4ccccc4n3CC(=O)N(c3ccccc3)C(C)C)CC2=O)cc1 (stereo not given)	0.89	-2.6
COc1ccccc1-c1cc(C(F)(F)F)nc(N2CCCC2)n1	1.2	8.7

# Exported with each value named: part of the list above
CN1CCN(CCCSc2nnc3c(n2)[nH]c2ccccc23)CC1
  CBX7 inh = 1.1
  CBX7 inh z-score = 0.88

COc1ccc(-c2cn(-c3ccc(F)cc3)c(S(=O)(=O)CC(=O)Nc3ccccc3)n2)cc1
  CBX7 inh = 1
  CBX7 inh z-score = 0.36

CCOC(=O)c1c(NC(=O)COc2ccc(Br)cc2)sc(C)c1C
  CBX7 inh = 1
  CBX7 inh z-score = 0.066

Cc1nc2c(C(=O)NCc3ccc4c(c3)OCO4)cnn2c(C)c1Cc1ccc(F)cc1
  CBX7 inh = 0.96
  CBX7 inh z-score = -1.1

# (further entries)
Molecule	CBX7 inh	CBX7 inh z-score
CCC(=O)Nc1nnc(CCCn2c(-c3nonc3NC(=O)CC)nc3ccccc32)s1	0.95	-1.5
COc1ccc(-c2cc3ccccc3n2CC(O)CNc2ccc(C)cc2C)cc1 (stereo not given)	0.71	-6
Clc1ccc2nc(-c3cccnc3)c(NC3CCCC3)n2c1	1.1	1.2
O=C1CC(N2CCN(c3cccc(C(F)(F)F)c3)CC2)C(=O)N1c1ccc(O)cc1 (stereo not given)	1	0.2
CCCCOc1ccc(C(=O)Nc2ccc(Cl)c(NC(=O)c3ccccc3)c2)cc1	1.1	0.62
O=C(c1cc2n(n1)C(C(F)(F)F)CC(c1ccc(Cl)c(Cl)c1)N2)N1CCCC1 (stereo not given)	1.2	3.5
CCOc1ccc(NC(=O)c2nccnc2C(=O)O)cc1	0.69	-4
Cc1ccc(NC(=O)CC2Nc3cc(C)c(C)cc3NC2=O)c(C)c1 (stereo not given)	1.1	2.1

# Compound activity: PubChem BioAssay, several laboratories
